Mito fusion yeast – blocks mitochondrial division or promotes mitochondrial fusion; Potency, µM (doses to about 46.1 µM), for inactives: at the highest dose growth rescue (activation), usual class: activators; S. cerevisiae fusion-defective mutant growth rescue, CellTiterGlo 48 h; AID 485298; 320,000 compounds, 0.23% hits;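 note: potency is the fitted concentration of half-maximal effect; % of control where 0% means no effect; nearly all actives have a fitted effect of over 45% in size; temperature-sensitive fusion mutants such as fzo1-1 at 37 °C on non-fermentable ethanol glycerol medium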
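Read-out: ATP-based luminescence (CellTiterGlo, 10 min ambient) reporting growth of fusion-defective ts yeast after 48 hours at 37C on glycerol/ethanol YPEG medium in the presence of compound.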
BCR signal inh – inhibitors of chronic active B-cell receptor signaling; ABC-DLBCL IkBa-CBG/CBR reporter, luminescence ratio, 4 h; Potency, µM (series often up to 46.1 µM), for the others: at the highest dose ratio change, negative = lower green/red ratio, usual class: inhibitors; 340,000 compounds, 0.05% hits; AID 493014; active = well fitted inhibition curve with a large enough effect in the signal ratio, with a control signal flat, not every such curve was filed as active; inconclusive = small, poorly fitted or top-dose-only effect, or effect the other way, or a change in a side signal; the % refers to the signal ratio;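 note: potency is the fitted concentration of half-maximal effect; plate controls were basal doxycycline-induced cells for no effect and cells given 10 µM MG132 for full effect; MG132 reads +100%, hits lower the ratio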
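Concentration-response series (up to 46 uM) were applied to TMD8 dual-reporter cells for 4 h at 37C with doxycycline. Green/red ratio, after filter-overlap correction, defined %Activity; red signal alone was normalised to basal cells and zero luminescence.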
uPA generation – blocks generation of uPA at the cell surface | cell surface uPA generation assay, qHTS | Potency, µM (highest dose often 38.3 µM), inactives show at the highest dose activity change, negative = inhibition, usual class: inhibitors | 330,000 compounds, 0.31% hits | AID 540303; active = well fitted inhibition curve with a large enough effect; inconclusive = small, poorly fitted or top-dose-only effect; inactive = no such curve, though single readings can be large or run the other way; tested in mouse RAW 264.7 cells; note: potency is the fitted concentration of half-maximal effect; % is set by controls: 0 for no effect and ±100 for the full control effect; nearly all actives have a fitted effect of over 55% in size
TCR act – activators of T cell receptors; 330,000 tested, under 10 active; primary human leukocytes, anti-CD3, IL-2 HTRF, 48 h; Potency, µM (titrated, usually from 9.22 µM), without a hit: at the top dose activation of IL-2 secretion, most hits filed as activators; note: % of control where 0% means no effect
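Primary human leukocytes receive a-CD3 beads and test compound and are incubated 48 hr. Secreted IL-2 is then assayed by HTRF, measuring 665nm acceptor emission after 320nm excitation of the europium donor.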
ELG1 repair inh – ELG1-dependent DNA repair inhibition; 330,000 compounds, 2.3% hits; HEK293T ELG1-luciferase reporter, luminescence, 16 h; DNA damage induced by 5-fluorouridine; AID 504467; Potency, µM (top dose mostly 46.1 µM), inactives show top-dose activity change, negative = inhibition, most hits filed as inhibitors; note: potency is the fitted concentration of half-maximal effect; % is set by controls: 0 for no effect and ±100 for the full control effect; nearly all actives have a fitted effect of over 55% in size
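Step one: seed 2,000 cells per well. Step two: pin-transfer compound or DMSO alongside 5-fluorouridine. Step three: incubate 16 hr, 37 °C, 5% CO2. Step four: add ONE-Glo, wait 30 min, read luminescence.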
B2AR arrestin – beta2AR (human) beta-arrestin recruitment activity; beta-arrestin recruitment to beta2AR, cell-based reporter; Potency, µM (highest dose often 46.1 µM), for inactives: top-dose activation, hits mostly activators; 330,000 compounds, 0.02% hits; AID 492947;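 note: potency is the fitted concentration of half-maximal effect; 0% = DMSO controls and full agonism = EC100 isoproterenol or metaproterenol; nearly all actives have a fitted effect of over 65% in size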
TSG101-PTAP inh – blocks PTAP/TSG101 interaction to inhibit HIV-1 budding; Fluorescence polarization, FITC-PTAP peptide / Tsg101 binding; Potency, µM (doses to about 115 µM), without a hit: at the highest dose activity change, negative = inhibition, hits mostly inhibitors; 340,000 tested, under 10 active; active = well fitted inhibition curve with a large enough effect in the main read-out, with a control signal flat, not every such curve was filed as active; inconclusive = small, poorly fitted or top-dose-only effect, or effect the other way, or a change in a side signal; inactive = no such curve, though single readings can be large or run the other way; note: potency is the fitted concentration of half-maximal effect; % of control where 0% means no effect
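Compounds were pin-transferred onto Tsg101 binding domain (10 uM final) in HEPES pH 7.5 buffer, then FITC-PTAP peptide was added at 50 nM final. After 20 min at RT, polarization reported peptide displacement across a qHTS concentration series.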
USP2a block – USP2a (human) protease inhibition. 330,000 compounds, 0.01% hits. Potency, µM (highest dose often 38.3 µM), for inactives: at the top dose activity change, negative = inhibition, most hits filed as inhibitors. O75604. USP2 core, Ub-CHOP2 coupled fluorogenic reporter, 485/531;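 note: potency is the fitted concentration of half-maximal effect; plate controls were DMSO wells for no effect and full inhibition by NEM control for full effect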
Target sequence (O75604 whole entry, looked up): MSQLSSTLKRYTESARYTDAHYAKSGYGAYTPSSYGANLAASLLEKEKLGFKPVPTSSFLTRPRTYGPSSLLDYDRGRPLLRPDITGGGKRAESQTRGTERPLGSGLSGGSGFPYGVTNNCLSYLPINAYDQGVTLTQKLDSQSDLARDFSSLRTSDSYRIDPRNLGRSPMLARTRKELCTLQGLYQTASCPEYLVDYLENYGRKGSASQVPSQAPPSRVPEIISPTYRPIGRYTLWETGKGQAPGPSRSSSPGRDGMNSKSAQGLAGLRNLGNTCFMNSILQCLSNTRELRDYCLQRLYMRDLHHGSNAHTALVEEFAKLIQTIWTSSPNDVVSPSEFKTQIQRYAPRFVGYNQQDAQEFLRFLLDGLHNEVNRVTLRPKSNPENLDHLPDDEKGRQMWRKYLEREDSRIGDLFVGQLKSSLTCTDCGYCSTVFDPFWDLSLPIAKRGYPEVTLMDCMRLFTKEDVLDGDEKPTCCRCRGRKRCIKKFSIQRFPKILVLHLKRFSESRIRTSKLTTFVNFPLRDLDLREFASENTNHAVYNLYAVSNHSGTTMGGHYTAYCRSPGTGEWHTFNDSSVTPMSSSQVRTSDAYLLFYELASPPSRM
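Cell-free coupled assay: 10nM USP2 core preincubated 30min RT with compound in Tris-HCl pH 8.0/CaCl2/CHAPS buffer, then 25nM Ub-CHOP2 and 25nM reporter substrate; fluorescence (Ex 485/Em 531) read after 60min RT, normalized to NEM inhibition, concentration-response curves fitted.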
Tb PFK block – blocks T. brucei phosphofructokinase; T. brucei PFK, ADP-Glo luminescence; AID 485367; Potency, µM (doses to about 57.5 µM), inactives show top-dose activity, negative = inhibition, usual class: inhibitors; O15648; 330,000 compounds, 0.17% hits;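 note: potency is the fitted concentration of half-maximal effect; 0% = uninhibited 1x PFK enzyme wells and -100% = no-enzyme wells; nearly all actives have a fitted effect of over 60% in size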
Target sequence (O15648 whole entry, looked up): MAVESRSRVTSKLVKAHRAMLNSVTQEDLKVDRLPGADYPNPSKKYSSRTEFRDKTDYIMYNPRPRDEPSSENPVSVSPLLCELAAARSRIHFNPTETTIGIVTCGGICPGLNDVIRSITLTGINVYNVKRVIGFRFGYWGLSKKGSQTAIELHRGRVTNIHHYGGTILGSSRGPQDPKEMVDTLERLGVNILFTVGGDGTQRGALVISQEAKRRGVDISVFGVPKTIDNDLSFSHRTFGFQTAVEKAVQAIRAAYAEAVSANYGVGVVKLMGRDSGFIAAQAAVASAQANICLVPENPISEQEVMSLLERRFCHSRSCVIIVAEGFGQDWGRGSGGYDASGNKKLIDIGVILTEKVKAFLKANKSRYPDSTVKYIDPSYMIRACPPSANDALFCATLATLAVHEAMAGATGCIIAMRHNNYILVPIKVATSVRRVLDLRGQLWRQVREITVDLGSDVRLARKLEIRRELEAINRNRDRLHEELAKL
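Luminescent ADP detection (ADP-Glo, two-step: ATP depletion then ADP-to-ATP conversion for luciferase) reported PFK activity after 45 min room-temperature reaction of 1.25 nM enzyme with 0.5 mM F6P and 0.1 mM ATP at pH 8.0.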
Eya2 phos inh – inhibitors of human Eya2 phosphatase activity | 330,000 compounds, 0.006% hits | Potency, µM (titrated, usually from 76.9 µM), without a hit: top-dose activity, negative = inhibition, hits mostly inhibitors | AID 488837 | recombinant Eya2, OMFP fluorescence dephosphorylation (OMFP is methylfluorescein phosphate); note: potency is the fitted concentration of half-maximal effect; % is set by controls: 0 for no effect and ±100 for the full control effect
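Eya2 protein (added as 0.2 uM solution) was preincubated with compound for 10 min at ambient temperature in 50 mM HEPES pH 7.5, 50 mM NaCl, 5 uM MgCl2, 0.05% BSA, 1 mM DTT. OMFP (added at 50 uM) then reacted 10 min; fluorescence read at 485/525 nm.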
* = called active by the depositor; ? = inconclusive; · = no result given; [ ] = remark or other dose. Unless noted, calls come from the whole dose curve; as a rule, active = well fitted curve in the direction sought with a large enough effect; inconclusive = small, poorly fitted or top-dose-only effect, or another doubt; inactive = no such curve, though single readings can be large; an effect the other way counts as inactive or inconclusive. These rows are one share of the data. The share of hits here may be higher or lower than overall.

SMILES	Mito fusion yeast	BCR signal inh	uPA generation	TCR act	ELG1 repair inh	B2AR arrestin	TSG101-PTAP inh	USP2a block	Tb PFK block	Eya2 phos inh
CC(CC(=O)N1CCN(S(=O)(=O)c2ccc(Cl)cc2)CC1)n1cncn1 (stereo not given)	1%	11%	1%	3%	2%	-0.7%	-2%	-1%	0%	-20%
O=S(=O)(Nc1cccc(-c2cn3cccnc3n2)c1)c1ccc(-c2ccccc2)cc1	6%	-7%	-6%	0%	?	-0.8%	-4%	-8%	0%	-15%
CCc1nnc(NC(=O)C2CCN(C(=O)c3ccco3)CC2)s1	-5%	-16%	2%	1%	10%	0.2%	0%	1%	0%	3%
COc1ccc(-c2csc3ncnc(N4CCN(c5cccc(C)c5C)CC4)c23)cc1	1%	-1%	2%	0%	?	0.5%	0%	0%	10%	7%
Cc1c(C(=O)Nc2ccc(Cl)cc2)c2ccccn2c1C(=O)c1ccc([N+](=O)[O-])cc1	2%	-14%	4%	·	1%	0.2%	-9%	-1%	-4%	9%
CS(=O)(=O)Nc1cccc(-c2cn3c(n2)SCC3)c1	5%	4%	?	9%	?	0.4%	-2%	1%	1%	-16%
COc1ccc(C(=O)Nc2ccc(C3(C#N)CCCC3)cc2)cc1	-6%	-3%	-9%	-1%	-4%	-0.4%	-3%	-1%	-1%	0%
CCOCCCN(C(=O)c1snc(C(N)=O)c1N)C(C(=O)NCCC(C)C)c1ccc(F)cc1 (stereo not given)	4%	9%	9%	1%	?	-0.9%	-4%	0%	2%	-3%
CSc1nc(N(C)C)nc(N2CC(=O)N(CCNS(=O)(=O)c3ccc(C)cc3)C2=N)n1	-7%	-2%	-5%	4%[46.1 µM]	-12%	0.4%	-2%	3%	2%	8%
CCOC(=O)c1c(NC(NC(=O)C(C)C)C(Cl)(Cl)Cl)sc2c1CCC2 (stereo not given)	-5%	9%	-3%	2%[46.1 µM]	-12%	-2.1%	0%	-14%	7%	1%
C=CCn1c(SCC(=O)Nc2ccccc2F)nnc1C(C)NC(=O)c1ccccc1F (stereo not given)	0%	1%	1%	0%	3%	-0.3%	-1%	-1%	1%	0%
C/C(=N\NC(=O)c1ccc(NS(=O)(=O)c2cccs2)cc1)c1ccc(C(C)(C)C)cc1	-5%	?	-9%	-5%[46.1 µM]	?	-0.4%	0%	-1%	-8%	2%
O=c1ccn(Cc2ccc(F)cc2)c2ccnc(C(F)(F)F)c12	3%	0%	-5%	-5%[46.1 µM]	-11%	-0.5%	-6%	3%	-15%	5%
N/C(=N/O)c1nc(N2CCCCC2)nc(N2CCCCC2)n1	3%	-6%	-7%	-1%[46.1 µM]	7%	-0.3%	-6%	-3%	-7%	-12%
COc1ccc(C(C(=O)NCCC(C)C)N(CCO)C(=O)c2snc(C(N)=O)c2N)cc1 (stereo not given)	-1%	?	14%	-10%	?	-0.2%	-3%	1%	3%	8%
COc1ccc(NC(=O)NS(=O)(=O)c2ccc(C)cc2)cn1	-14%	4%	4%	0%	-6%	-0.1%	-18%	?	0%	19%
CC(=O)O[C@H]1c2ccccc2-c2ccccc2[C@@H]1OC(C)=O	5%	-3%	-1%	-2%	4%	4.6%	-5%	-2%	-2%	1%
CCn1c(Cc2ccccc2)nnc1SCC(=O)Nc1ccc(S(N)(=O)=O)cc1	-3%	?	3%	5%	8%	-0.1%	-6%	1%	-3%	22%
O=C1N(CN2C(=O)C3(OCCO3)c3ccccc32)c2ccccc2C12OCCO2	2%	-7%	-1%	2%	-4%	-0.1%	-1%	1%	0%	-33%
CC1(C)CC(/C=C/c2ccccc2)=Nc2ccccc2N1	-6%	?	?	8%	?	-0.6%	-4%	-4%	0%	-14%
Cc1ccc(/C=C2/Sc3ccc(C(=O)N4CCN(c5ccccn5)CC4)cc3NC2=O)cc1	7%	0%	6%	-8%	-19%	-0.2%	30%	4%	1%	2%
COC(=O)[C@H](C(C)C)N(Cc1ccccc1)S(=O)(=O)CCN1CCCC1	·	1%	-10%	-3%[46.1 µM]	9%	-2.9%	-1%	-1%	1%	5%
CC(C)N(CCCNC(=O)c1nn(C)c2c1CS(=O)(=O)c1ccccc1-2)Cc1ccccc1	-2%	0%	-2%	4%	14%	0.1%	-6%	2%	-1%	-7%
Cc1ccc(S(=O)(=O)N2CCN(c3ncnc4ccccc34)CC2)cc1	12%	-2%	?	19%	?	-3.8%	-9%	3%	0%	14%
CC(=O)N/C(=C\c1ccccc1)C(=O)OC(C)C(=O)N(C)c1ccccc1 (stereo not given)	4%	0%	0%	-1%	4%	-0.2%	-5%	3%	-7%	-7%
Cc1nnc(NC(=O)CSc2nnc(CCNC(=O)c3ccccc3F)n2C)s1	1%	0%	-1%	4%	9%	-0.2%	-3%	1%	1%	14%
O=S(=O)(c1cc(C(F)(F)F)ccc1Cl)N1CCCCCC1	-4%	-1%	-8%	-4%	0%	-0.1%	-8%	2%	6%	3%
COc1ccc(N(CC(=O)N2CCCC2)S(C)(=O)=O)cc1	3%	2%	-3%	·	9%	?	-3%	-1%	0%	9%
O=C(CSc1nc(O)cc(=O)[nH]1)C1CC1	7%	0%	6%	26%	-2%	-1.1%	-3%	9%	0%	-2%
COc1cc(C)c(NC(=S)Nc2cccc(Cl)c2)cc1OC	-2%	?	3%	-7%[46.1 µM]	14%	1.5%	-2%	5%	0%	6%
CCN(CCCNC(=O)c1nn(C)c2c1CS(=O)(=O)c1ccccc1-2)Cc1ccccc1	9%	-8%	2%	-3%	0%	-0.6%	-3%	0%	-1%	-4%
O=S(=O)(NCc1ccc2c(c1)OCO2)c1ccccc1F	-3%	4%	-1%	-3%	3%	0.5%	-3%	-1%	-12%	-7%
COC(=O)c1cc(S(=O)(=O)NC2CCN(Cc3ccccc3)CC2)cn1C	1%	-2%	0%	-4%	0%	-0.2%	-2%	0%	-6%	1%
CC(C)c1ccc(-c2csc3ncnc(N4CCN(C)CC4)c23)cc1	-24%	?	-6%	1%	12µM*	-0.1%	-2%	-1%	-1%	-10%
COCCOc1cc(N)c(Cl)cc1Cl	1%	3%	3%	2%	-12%	0.2%	-3%	3%	-4%	-14%
Cc1ccc(N(C(=O)c2ccco2)C(C(=O)NC2CCCC2)c2cccnc2)cc1C (stereo not given)	-5%	-2%	8%	2%	2%	-0.2%	0%	1%	3%	-14%
CN(Cc1ccco1)C(=O)Cn1nc(-c2ccc(Cl)cc2)ccc1=O	3%	0%	-21%	4%	-12%	0.1%	-4%	3%	-4%	0%
COC(=O)C(C)(C)ONC(=O)Nc1ccc([N+](=O)[O-])cc1	4%	4%	1%	0%	12%	0.1%	-7%	-1%	-8%	5%
C=CCn1c(Cc2csc(N)n2)nnc1SCC(=O)Nc1ccccc1C(F)(F)F	-2%	-10%	-23%	·	-1%	0.2%	·	2%	2%	23%
CCOC(=O)c1c(-c2ccccc2)nnn1-c1nc(OC)nc(N2CCOCC2)n1	-2%	-4%	7%	4%	-9%	-0.4%	-3%	0%	0%	-2%
CN1CCN(C(=O)c2ccc3c(c2)NC(=O)/C(=C/c2ccccc2)S3)CC1	-17%	5%	-24%	-4%	-11%	-1.1%	-4%	1%	-2%	-7%
O=C1C=C(NCc2ccccc2)CCC1	0%	-8%	11%	4%[46.1 µM]	6%	0.4%	0%	3%	6%	1%
CC(c1cc2ccccc2s1)N(O)C(N)=O (stereo not given)	-4%	?	·	·	·	-0.9%	·	5%	0%	-3%
CC1CCN(CCCNc2cc(NCCO)c([N+](=O)[O-])c3nonc23)CC1	0%	0%	6%	1%	5%	0.1%	0%	6%	3%	13%
CC(=O)C1(O)CCC2C3CC(C)C4=CC(=O)C=CC4(C)C3(F)C(O)CC21C (stereo not given)	·	·	4%	-1%	·	·	-6%	·	·	·
O=C(O)CN1C(=O)SC(Nc2ccc(Cl)cc2)C1=O (stereo not given)	-1%	-19%	-7%	1%	-6%	-0.1%	-4%	2%	-2%	-4%
C/C(CC(=O)NCC(C)C)=N\NC(=O)COc1cc(C)c(Br)cc1Br	1%	-2%	2%	1%[46.1 µM]	3%	-0.6%	-3%	5%	0%	-3%

Three structures out of the list, sorted by heavy-atom count, highest first.
SMILES	Mito fusion yeast	BCR signal inh	uPA generation	TCR act	ELG1 repair inh	B2AR arrestin	TSG101-PTAP inh	USP2a block	Tb PFK block	Eya2 phos inh
CC(=O)C1(O)CCC2C3CC(C)C4=CC(=O)C=CC4(C)C3(F)C(O)CC21C (stereo not given)	·	·	4%	-1%	·	·	-6%	·	·	·
CC(=O)O[C@H]1c2ccccc2-c2ccccc2[C@@H]1OC(C)=O	5%	-3%	-1%	-2%	4%	4.6%	-5%	-2%	-2%	1%
COC(=O)C(C)(C)ONC(=O)Nc1ccc([N+](=O)[O-])cc1	4%	4%	1%	0%	12%	0.1%	-7%	-1%	-8%	5%
